D2 potentiator: positive allosteric modulators of human D2 dopamine receptor; P14416; 0.23% of 360,000 active; DiscoveRx D2 beta-arrestin cells, luminescence, 90 min; 100% = 57 uM dopamine signal; potentiation, % (concentration not given with the values); active = potentiation of 50% or more; inconclusive = 30% to 50%; inactive = 30% or less;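 note: compound concentration not given in the record; tested on top of an EC20 dose of dopamine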
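PathHunter D2 cells, attached overnight at 37 deg C, received compound in DMSO plus dopamine at EC20 (50 nM final) for 90 min at 37 deg C. Beta-arrestin recruitment was read as luminescence after 1 h with detection reagent at ambient temperature.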
TRPV1 potentiator: potentiators of human vanilloid receptor 1 (TRPV1); Q8NER1; TRPV1-expressing cells, Fluo-8 calcium influx, capsaicin EC20 potentiation; host cell line not named in the record; control for the full effect not named in the record; potentiation, % at 8.33 µM; 0.02% of 320,000 active; active means potentiation above 80%; inconclusive means 30% to 80%; inactive means below 30%; note: 0% is about no effect
Target sequence (Q8NER1 whole entry, looked up): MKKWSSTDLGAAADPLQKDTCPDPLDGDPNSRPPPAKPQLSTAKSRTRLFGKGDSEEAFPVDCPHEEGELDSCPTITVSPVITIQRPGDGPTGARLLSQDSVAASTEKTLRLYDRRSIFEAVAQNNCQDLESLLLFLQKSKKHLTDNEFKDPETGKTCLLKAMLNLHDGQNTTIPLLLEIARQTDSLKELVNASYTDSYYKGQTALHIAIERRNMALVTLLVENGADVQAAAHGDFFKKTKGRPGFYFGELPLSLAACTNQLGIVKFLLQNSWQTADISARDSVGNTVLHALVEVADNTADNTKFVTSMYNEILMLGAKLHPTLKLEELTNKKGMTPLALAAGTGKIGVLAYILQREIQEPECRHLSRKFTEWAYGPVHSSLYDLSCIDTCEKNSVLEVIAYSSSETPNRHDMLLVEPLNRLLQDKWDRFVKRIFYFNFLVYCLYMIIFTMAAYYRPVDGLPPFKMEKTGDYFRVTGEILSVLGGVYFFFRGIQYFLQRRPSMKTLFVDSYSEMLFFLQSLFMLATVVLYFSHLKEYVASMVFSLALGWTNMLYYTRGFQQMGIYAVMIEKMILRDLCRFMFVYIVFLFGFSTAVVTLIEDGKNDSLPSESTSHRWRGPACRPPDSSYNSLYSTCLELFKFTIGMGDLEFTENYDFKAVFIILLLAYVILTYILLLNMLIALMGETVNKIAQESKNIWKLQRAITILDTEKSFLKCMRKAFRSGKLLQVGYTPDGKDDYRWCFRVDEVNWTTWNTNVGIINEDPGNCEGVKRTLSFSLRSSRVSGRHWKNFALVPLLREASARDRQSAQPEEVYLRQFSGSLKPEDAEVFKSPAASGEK
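Fluo-8 calcium influx in TRPV1-expressing cells, kinetic read (ex 480/em 520 nm). Compound added and read 3 min for agonist activity, followed by capsaicin at EC20 final and 2 min further read for enhancement.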
gsp antagonist: antagonists of gsp mutant (McCune-Albright syndrome); gsp-mutant cells, cAMP HTRF, 30 min; control for the full effect not named in the record; AID 624288; 0.4% of 340,000 active; Potency, µM (doses to about 76.9 µM), for the others: top-dose activity change, negative = inhibition, most hits filed as inhibitors; active = falling curve of any shape with a large fitted effect; inconclusive = falling curve, mostly with a smaller effect; inactive = flat or rising curve; cell line not stated here;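 note: intracellular cAMP measured with PDE inhibitor Ro 20-1724 present during compound exposure; potency is the fitted concentration of half-maximal effect; % is set by controls: 0 for no effect and ±100 for the full control effect; nearly all actives have a fitted effect of over 65% in size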
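G418-selected cells were plated in DMEM/10% FBS for 16-24 h at 37C, then treated with compounds plus the PDE inhibitor […] (300 uM solution added) for 30 min at 37C. Intracellular cAMP was measured by HTRF after 30 min lysis at room temperature.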
Sfp inh: inhibitors of Bacillus subtilis Sfp phosphopantetheinyl transferase | Biochemical Sfp PPTase activity, qHTS | AID 1490 | Q9F4F7 | Potency, µM, for the others: max response, negative = inhibition, hits mostly inhibitors | 3.5% of 310,000 active; active = well fitted inhibition curve with a large enough effect; inconclusive = small, poorly fitted or top-dose-only effect, or another doubt; inactive = no such curve, though single readings can be large or run the other way;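 note: the enzyme is Sfp with the accession as filed and its product quenches rhodamine fluorescence; potency is the fitted concentration of half-maximal effect; 0% = enzyme reaction without inhibitor and -100% = no enzyme wells; top concentration of the series not given in the record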
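Buffer: 50 mM Hepes-Na pH 7.6, 10 mM MgCl2, 0.01% Nonidet P-40, 0.01% BSA. Enzyme 15 nM, pre-exposed to compound 15 min; substrates then added and fluorescence change tracked over 30 min.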
ClpP mod: qHTS Assay for Activators of ClpP | ATP-dependent Clp protease proteolytic subunit (Bacillus subtilis (strain 168)), P80244 | purified B. subtilis ClpP, FRET peptide cleavage, 20 min | Potency, µM (top dose mostly 57.5 µM), for inactives: at the highest dose activity change, negative = active | 1.9% of 340,000 active; active = well fitted falling curve with a large enough effect; inconclusive = small, poorly fitted or top-dose-only effect; inactive = no such curve, though single readings can be large or run the other way; note: potency is the fitted concentration of half-maximal effect; the source files actives as falling curves though it sought activators and does not explain the sign; nearly all actives have a fitted effect of over 65% in size; many hits overshoot -100%
Target sequence (P80244 whole entry, looked up): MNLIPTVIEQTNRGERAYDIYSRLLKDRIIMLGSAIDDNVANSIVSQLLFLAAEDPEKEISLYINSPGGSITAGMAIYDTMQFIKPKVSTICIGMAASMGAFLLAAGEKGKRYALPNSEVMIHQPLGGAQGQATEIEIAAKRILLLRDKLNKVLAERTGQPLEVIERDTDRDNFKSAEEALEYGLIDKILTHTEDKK
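ClpP 10 microg/mL final, pH 8 Tris/KCl buffer with BSA, glycerol, Tween-20; compound pinned in; FRET-FV substrate; RT 20 min; Ex320/Em430; ΔFRET vs ADEP 5.8 microM, DMSO, no enzyme.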
gsp ag: activates gsp, the McCune-Albright syndrome mutation; AID 624287; gsp mutant cells, cAMP HTRF, 30 min; control for the full effect not named in the record; 0.13% of 340,000 active; Potency, µM (highest dose often 76.9 µM), for inactives: top-dose activation (cAMP increase), most hits filed as activators; active = well fitted activation curve with a large enough effect; inconclusive = small, poorly fitted or top-dose-only effect, or another doubt; inactive = no such curve, though single readings can be large or run the other way; cell line not stated here;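 note: phosphodiesterase inhibitor Ro 20-1724 added with compounds to block cAMP breakdown; potency is the fitted concentration of half-maximal effect; nearly all actives have a fitted effect of over 60% in size; about a fifth of the inactives were tested at one dose only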
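Cells in DMEM/10% FBS with G418 were pretreated with compounds in DMSO plus […] (300 uM stock) for 30 min at 37C. cAMP was measured by HTRF (cAMP-d2 plus anti-cAMP antibody-K) after 30 min at room temperature.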
Menin MLL FP FL: displaces fluorescein MLL peptide from human menin. Fluorescence polarization, fluorescein-MLL peptide displacement from menin. FP activity change, % at 61.4 µM. 290,000 tested, under 10 active. AID 1766; inconclusive = falling polarisation curve, or a change in total fluorescence; inactive = total fluorescence flat and polarisation flat or rising; no compound was filed as active; the % refers to the polarisation; negative = inhibition;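 note: % of control where 0% means no effect; inhibitors lower the polarisation; unlabelled MLL peptide was the positive control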
* hit, by the source's call; ? = inconclusive; . = no result given; & = joins results of further samples; [ ] = another dose, or the depositor's remark.

SMILES	D2 potentiator	TRPV1 potentiator	gsp antagonist	Sfp inh	ClpP mod	gsp ag	Menin MLL FP FL
CCCCCC(=O)NNC(=O)c1c(O)c2ccccc2n(CC)c1=O	-6	3	-6%	5%	.	11%[15.4 µM]	-1.0
CC(=O)Nc1ccc(NC(=O)C(C)OC(=O)C2CCC2)cc1 (stereo not given)	-12	6	2%	.	-2.7%	6%[15.4 µM]	.
O=C(Nc1ccn(Cc2ccccc2F)n1)c1ccc(COc2ccc(Br)cc2)cc1	9	19	-9%	-7%	-16%	-18%	3.0
Nn1c(SCC(=O)NC2CCCCC2)nnc1-c1ccccc1F	-9	-13	11%	.	1.7%	?	.
CC(C)OCCCNC(=S)NNC(=O)C(c1ccccc1)c1ccccc1	-3	6	0%	10%	.	-3%	1.0
O=C1c2nc3cc(-c4ccco4)[nH]n3c(=O)c2CN1C1CCCCC1	-1	0	-11%	-20%	3.6%	-5%	3.3
CCCCC(=O)NC1(C(F)(F)F)C(=O)Nc2c1c(=O)n(C)c(=O)n2C (stereo not given)	13	1	-8%	8%	-0.2%	-18%	0.8
COc1cccc2cc(C(C)N(CCCN3CCOCC3)C(=S)Nc3cccc(C)c3)oc12 (stereo not given)	-16	1	-20%	11%	.	23%	-0.6
CC(C)(C)OC(=O)C[C@H]1C/C=C\C[C@@H](CC(=O)N(CCO)Cc2ccccc2)C(=O)N[C@H](Cc2c[nH]c3ccccc23)COC1=O	-10	.	-14%	.	-2.5%	-25%	.
Cc1ccc(C)c(S(=O)(=O)N2CCCOC2CNC(=O)C(=O)NCc2ccc3c(c2)OCO3)c1 (stereo not given)	4	6	0%	4%	-0.5%	5%	.
O=C(O)CC/C(=N/NC(=O)CNC(=O)C(c1ccccc1)c1ccccc1)c1ccccc1	-4	-12	9%	15%	1.3%	-13%	-1.7
Clc1ccc(NC2(c3nnnn3C3CCCCC3)CCCCC2)cc1	-7	-5	-3%	7%	-1.1%	-16%	-2.8

The closing two entries of the section before come first, to join the parts:
SMILES	D2 potentiator	TRPV1 potentiator	gsp antagonist	Sfp inh	ClpP mod	gsp ag	Menin MLL FP FL
O=C(O)CC/C(=N/NC(=O)CNC(=O)C(c1ccccc1)c1ccccc1)c1ccccc1	-4	-12	9%	15%	1.3%	-13%	-1.7
Clc1ccc(NC2(c3nnnn3C3CCCCC3)CCCCC2)cc1	-7	-5	-3%	7%	-1.1%	-16%	-2.8
O=C(CN1C(=O)C2C3C=CC(C3)C2C1=O)Nc1nc(-c2ccccn2)cs1 (stereo not given)	12	2	-12%	?	-2.0%	0%	0.2
COc1ccc2nc(SCc3cnc(C)nc3N)[nH]c2c1	-5	1	4%	4%	-1.2%	-6%	-0.7
Cc1nc(C(C)NC(=O)c2ccc(OC3CCN(Cc4ccccn4)CC3)cc2)c(C)s1 (stereo not given)	-1	1	11%	9%	-0.6%	6%	.
O=C(Nc1nc2ccc(SC(F)F)cc2s1)c1ccc(NS(=O)(=O)c2ccc(F)c(F)c2)cc1	3	-21	?	-5%	32µM*	3%[15.4 µM]	13
O=C1c2ccccc2C(=O)N1OCc1cccc(Cl)c1	11	-8	-7%	11%	-20%	18%	-5.1
CCN(CC)S(=O)(=O)c1ccc(-c2csc(C)n2)cc1	-6	1	-3%	-1%	0.6%	8%	1.6
Cc1ccc(NC(=S)NCc2ccccc2)cc1[N+](=O)[O-]	-16	-13	-18%	3%	-4.1%	-10%	-1.2
C[C@@H]1CN([C@H](C)CO)C(=O)c2cc(Br)cnc2O[C@H]1CN(C)C(=O)Cc1ccncc1	-7	.	.	.	-1.8%	20%	.
Cc1ccc(NC(=S)N2CCCCC2CO)cc1C (stereo not given)	-5	-4	10%	6%	-0.3%	-7%[15.4 µM]	-0.4
Cc1ccc(Cn2cc(/C=C/C(=O)O)c(-c3ccccc3)n2)cc1	-8	7	-13%	8%	-1.2%	-24%	5.6
CC(C)NS(=O)(=O)c1ccc(OCC(=O)N2CCc3ccccc3C2)cc1	-4	9	3%	15%	.	-4%	-1.9
CCOC(=O)CN1CC23C=CC(O2)C(C(=O)NCc2ccccc2OC)C3C1=O (stereo not given)	-2	27	4%	3%	-1.4%	30%	2.1
CCC(C)NC(=O)C1c2ccccc2C(=O)N1Cc1ccc(F)cc1 (stereo not given)	-8	11	1%	5%	.	11%[15.4 µM]	6.1
CCc1nnc(NC(=O)C2=CCN(S(=O)(=O)c3ccc(F)cc3)CC2)s1	-8	-4	6%	5%	0.3%	23%	1.2
COc1cc(C(CC(=O)Nc2ccccn2)N2Cc3ccccc3C2=O)cc(OC)c1OC (stereo not given)	-6	20	-7%	9%	-2.2%	4%	-2.0
Cn1nnc2cc(NC(=O)Nc3ccccc3F)ccc21	-21	.	.	.	-27%	?	.
O=C(Nc1cnn(Cc2c(Cl)cccc2Cl)c1)c1ccc([N+](=O)[O-])cc1	24	0	-2%	-6%	7.2%	-2%	0.5
Cc1cccc(CC(=O)NCCS(=O)(=O)N2CCN(c3cccc(Cl)c3)CC2)c1	0	3	-1%	.	-4.0%	-1%	.
CCOc1ccc(C(=O)NCC(=O)NNC(=O)c2cc(C)oc2C)cc1OCC	-1	.	15%	.	-7.0%	-22%	.
CCc1cc(C(=O)N2CCN(C(=O)c3ccco3)CC2)sc1C	5	-16	6%	.	28µM*	9%	.
Nc1ccc(NC(=O)c2ccc(C(=O)Nc3ccc(N)cc3)cc2)cc1	0	-10	5%	8%	.	-17%	2.5
CC(O)Cc1nsc(NC(=O)c2cccs2)n1 (stereo not given)	-6	8	4%	-6%	-1.9%	15%	3.4
O=C(NC1CC1)c1cc2ccccc2o1	-6	-12	14%	1%	-1.6%	12%	4.2
CN1CCN(C(=S)NC(=O)c2cccc(S(=O)(=O)N(C)C)c2)CC1	-4	4	10%	?	.	?	-0.8
Nc1ncnc2c1ncn2[C@@H]1O[C@H](CO)C[C@@H]1O	.	3	.	12%&16%	.	.	-3.1&-1.6
COc1cc2c(cc1NC(=O)CN1CCN(S(=O)(=O)c3ccc(C)cc3)CC1)oc1ccccc12	1	-4	7%	1%	?	-7%[15.4 µM]	3.8
N#Cc1cc(Oc2cccc3cccnc23)c(-n2nnc3ccccc32)cc1C#N	5	4	17%	50µM*	2.6%	-3%	?
Cc1ccc(C)n1-c1ccc(C(=O)O)cc1	.	-10	.	-14%	.	.	?
CCN(c1cc(C)cc(C)c1)S(=O)(=O)c1nnc(NC(=O)C(C)C)s1	1	7	-12%	15%	.	11%	-6.1
CCCN1C(=O)C(O)(C2COC(C)(C)CC2=O)c2ccccc21 (stereo not given)	2	-4	-6%	11%	.	8%[15.4 µM]	-1.5
S=C(Nc1cccc2ccccc12)N1CCN(c2ncccn2)CC1	-17	4	-3%	-4%	-14%	-3%	-1.1
COc1ccc(NC(=O)/C(=C\c2ccc(OC)c(OC)c2)NC(=O)c2ccco2)cc1	-4	-15	-5%	17%	0.0%	5%	.
Cc1nc(=O)c(-c2ccccc2)c(C)n1-c1ccc(S(N)(=O)=O)cc1	1	0	3%	-6%	-1.9%	11%	0.9
CCCCNC(=O)CCNC(=O)c1ccc(C(C)(C)C)cc1	-20	-26	-1%	11%	1.9%	-43%	7.8
COc1ccc(-c2csc(NC(=O)CS(=O)(=O)c3ccccc3)n2)cc1	1	29	-20%	.	.	-6%[15.4 µM]	.
CCC(=O)c1ccc(OCc2ccc(C#N)cc2)cc1	-4	2	10%	10%	.	11%[15.4 µM]	-2.3

2 neighbouring entries from above, quoted:
SMILES	D2 potentiator	TRPV1 potentiator	gsp antagonist	Sfp inh	ClpP mod	gsp ag	Menin MLL FP FL
COc1cc2c(cc1NC(=O)CN1CCN(S(=O)(=O)c3ccc(C)cc3)CC1)oc1ccccc12	1	-4	7%	1%	?	-7%[15.4 µM]	3.8
N#Cc1cc(Oc2cccc3cccnc23)c(-n2nnc3ccccc32)cc1C#N	5	4	17%	50µM*	2.6%	-3%	?

Next section
SMILES	D2 potentiator	TRPV1 potentiator	gsp antagonist	Sfp inh	ClpP mod	gsp ag	Menin MLL FP FL
CCOC(=O)c1[nH]c(C)c(C(=O)OCC(=O)NC2CCS(=O)(=O)C2)c1C (stereo not given)	-5	-7	-8%	8%	-1.8%	?	0.4
Cc1cc(C(F)(F)F)nn1CC(=O)Nc1ccc(Br)c2cccnc12	-14	11	10%	10%	-0.7%	-14%	5.9
Cc1ccc(NC(=O)N2CCN(C(=O)C3CCCO3)CC2)cc1 (stereo not given)	-6	4	7%	1%	-1.4%	?	.
O=C(NC1CCCCC1)c1ccc2c(c1)S(=O)(=O)c1ccccc1C2=O	2	.	11%	.	1.7%	11%	.
Cc1cc2nsnc2c(S(=O)(=O)N2CCN(C)CC2)c1C	-8	18	7%	6%	.	-12%	-1.4
COc1ccc(CC(=O)OCC(=O)N2CCCC(C)C2)cc1 (stereo not given)	-3	4	5%	13%	.	3%	1.9
Cc1ccc(O)c(C(=O)c2cnc3c(c2)CN(C)C(=O)N3)c1	0	5	9%	-10%	-5.6%	1%	0.9
CSc1nc2c(ccc3ccccc32)o1	-10	10	6%	2%	-18%	?	4.4
CCCP(=O)(CCC)CCP(=O)(c1ccccc1)c1ccccc1	-3	12	8%	7%	5.2%	-14%[15.4 µM]	1.7
CCN(CC)CCCNC(=O)c1oc2ccc3c(c2c1C)C(O)CC(C)(C)O3 (stereo not given)	-10	4	10%	11%	3.7%	7%	-4.8
O=C(Nc1ccccc1)OC1CCS(=O)(=O)C1 (stereo not given)	-18	-5	1%	24%	-5.3%	-10%	4.2
COc1ccccc1N1CCN(C(=O)C(=O)c2cn(CC(=O)N3CCCC3)c3ccccc23)CC1	-19	3	-21%	6%	-0.1%	-9%	1.9
O=C(CN1C(=O)S/C(=C\c2cccs2)C1=O)Nc1ccc(O)cc1C(=O)O	-3	?	6%	-22%	-26%	-28%	.
CCN(CC(=O)Nc1c(F)cccc1F)C(=O)c1cc([N+](=O)[O-])ccc1N1CCCCC1	-9	6	3%	.	1.3%	-1%	.
COc1ccc(C(=O)N(Cc2nc(-c3ccc(C)cc3)no2)C2CCCCC2)cc1OC	-19	-6	-7%	4%	-1.7%	-6%	4.0
Cc1ccc(-n2c(C)nc3c(cnn3-c3ccccc3Cl)c2=O)cc1C	4	4	-1%	0%	-4.3%	11%	-0.7

Screens (PubChem)
